# Mtb H37Rv: Mycobacterium tuberculosis H37Rv growth inhibition, putative kinase inhibitor library, confirmatory dose response (AID 2842); M. tuberculosis H37Rv growth inhibition; higher % means a stronger effect; some inactives read as strong as hits; inhibition, % at 10 µg/mL; hits with a dose series show IC90 in µg/mL; 5.2% of 24,000 active;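 active means confirmed in a dose series; inconclusive means mostly over 85% at the one dose but not retested; inactive means below 85% or not confirmed; about a fifth of its hits are not listed in these tables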;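 further: bacteria incubated one week before Alamar blue readout; 0% = bacteria only wells and 100% = bacteria with high antibiotic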
# * hit, by the source's call; ? = inconclusive. A portion of the library; rates above refer to the full screens.
# The first 2 compounds as a preview:
SMILES,Mtb H37Rv
Cc1cccc(NC(=O)Cn2cnc3c(cnn3-c3ccccc3)c2=O)c1,-3.5%
Fc1ccc2nc(Nc3nnc(-c4ccc(Cl)cc4)o3)sc2c1,-3.4%

# The listing, previewed entries included:
SMILES,Mtb H37Rv
Cc1cccc(NC(=O)Cn2cnc3c(cnn3-c3ccccc3)c2=O)c1,-3.5%
Fc1ccc2nc(Nc3nnc(-c4ccc(Cl)cc4)o3)sc2c1,-3.4%
CC(=O)C(C)n1c(=O)c2c(nc3n(-c4ccccc4C)c(-c4ccccc4)cn23)n(C)c1=O (configuration not stated),-9.8%
COc1ccc(C)cc1-n1ccn(CC(=O)Nc2ccc(F)cc2)c(=O)c1=O,-11.3%
CC(=O)C(C)n1c(=O)c2c(nc3n(-c4cccc(Cl)c4C)c(-c4ccccc4)cn23)n(C)c1=O (configuration not stated),-1.2%
Cc1ccsc1CCNC(=O)c1ccc(NC2=NC3CS(=O)(=O)CC3S2)cc1 (configuration not stated),0.8%
CCOC(=O)c1oc2ccccc2c1NC(=O)COc1ccc(F)cc1,5.2%
Cc1ccc(-n2c(SCC(=O)Nc3cccc(Cl)c3)nc3c(c2=O)SCC3)cc1,19.3%
CCOc1ccnc2c1c(=O)n(CC#N)c(=O)n2C,-7.7%
O=C(O)CCN1C(=O)/C(=C\c2ccco2)SC1=S,-15.8%
CCOc1ccccc1NC(=O)c1oc2ccccc2c1NC(=O)C1CCCCC1,-0.9%
O=C(Cc1cccs1)Nc1nnc(-c2ccc(F)cc2)s1,-5.6%
CCc1ccc(NC(=O)c2sc3nc4c(cc3c2N)C(=O)CC(C)(C)C4)cc1,-6.5%
Cc1cc(NC(=O)CSc2ccc3nnc(-c4ccc(F)cc4)n3n2)no1,-2.4%
Fc1ccc(Nc2nc(N3CCN(c4ccccc4)CC3)nc3nccnc23)cc1,-6.6%
CCOC(=O)Cn1c(=O)c2c(nc3n(-c4ccccc4F)c(C)cn23)n(C)c1=O,-13.3%
O=C(CSc1ccc2nnc(-c3ccc(Cl)cc3)n2n1)NCc1ccco1,-4.7%
COC(=O)c1sc2ccccc2c1NC(=O)c1ccc2ncsc2c1,-5.0%
CCOCCn1c(SCc2ccccc2)nc2c1c(=O)[nH]c(=O)n2C,11.7%
O=C(NCc1ccc(F)cc1)c1cnc2n(c1=O)CCS2,-1.0%
Cc1csc(Sc2nc3c(c(=O)[nH]c(=O)n3C)n2CCCc2ccccc2)n1,-7.1%
CC(Nc1nc2c(S(=O)(=O)c3ccc(Cl)cc3)nnn2c2ccccc12)c1ccccc1 (configuration not stated),1.7%
CCn1c(O)c(C2=c3ccccc3=NC2=O)sc1=S,1.4%
CCC(=O)Nc1sc2c(c1C(N)=O)CCN(C(C)C)C2,-3.7%
COc1ccccc1-c1nnc(NC(=O)c2ccc(OC(C)C)cc2)s1,9.2%
# Additional results.
SMILES,Mtb H37Rv
CCOc1ccccc1NC(=O)CSCCCN1C(=O)c2ccccc2C1=O,-8.4%
Cc1c(Cc2ccc3c(c2)OCO3)sc(NC(=O)c2nc3ccccc3s2)c1C#N,12.3%
COc1ccc(-c2nc3c(c(SCC(=O)N(C)c4ccccc4)n2)Cc2ccccc2O3)cc1,2.5%
C/C(Cl)=C/CSc1nc2c(c(=O)[nH]c(=O)n2C)n1Cc1cccc(Br)c1,17.8%
Cc1c(Cl)cccc1N1CCCn2c1nc1c2c(=O)n(CC(=O)O)c(=O)n1C,-12.5%
COc1ccc(C(=O)Nc2c(N)nc(SCC(=O)Nc3ccc(C)c(Cl)c3)[nH]c2=O)cc1OC,-3.8%
CC(C)(C)c1ccc(C(=O)Nc2ccc3c(c2)OCCO3)cc1,5.9%
COCCCn1c(SCC(=O)Nc2ccccc2C(=O)OC)nc2c(sc3ccccc32)c1=O,-2.9%
O=C(NCCC1=CCCCC1)c1cnc2n(c1=O)CCS2,5.4%
O=C1c2cccc3cccc(c23)C(=O)N1CC(=O)N1CCCc2ccccc21,-20.3%
CC(=O)c1c(C)oc2ccc(N(C(=O)c3ccccc3)S(=O)(=O)c3cc(C)ccc3C)cc12,-1.4%
NC(=O)CSc1ncnc2c1cnn2-c1ccc(Cl)cc1,84.3%
COc1ccccc1NCC(=O)Nc1ncc(Cc2cccc3ccccc23)s1,6.5%
CCCC(CCC)C(=O)NCCc1cc2cc(C)c(C)cc2[nH]c1=O,6.3%
O=C(NCCn1ccc2ccccc21)NC1CC(=O)N(c2ccc3c(c2)OCCO3)C1 (configuration not stated),2.1%
Cc1cc2cc(CCNC(=O)C3CCCC3)c(=O)[nH]c2cc1C,4.1%
C#CCSc1nc2ccccc2n1C(=O)/C=C/c1ccc(OC)cc1,18.5%
CS(=O)(=O)Nc1ccc(C2=NN(C(=O)c3ccco3)C(c3ccccc3F)C2)cc1 (configuration not stated),-19.4%
Cc1ccc(N2CC(NC(=O)NCc3ccccn3)CC2=O)cc1 (configuration not stated),0.8%
CCOC(=O)c1c(NC(NC(=O)c2ccco2)C(=O)c2ccccc2)sc2c1CCCC2 (configuration not stated),8.0%
CC(C)c1ccc(C2C(C#N)=C(N)Oc3c2oc(CO)cc3=O)cc1 (configuration not stated),-0.1%
CCSC1=C(C#N)C(c2ccco2)C(C(=O)Nc2ccccc2OC)=C(C)N1 (configuration not stated),13.1%
COc1ccc(Cn2cc(C(=O)c3ccc(Cl)cc3)c(=O)c3cc4c(cc32)OCO4)cc1,?
CCOC(=O)c1ccc(NC(=O)CSc2nnc(C)c(=O)n2N)cc1,24.2%
O=C(CCCN1C(=O)/C(=C/c2ccc3c(c2)OCO3)SC1=S)Nc1ccc2c(c1)OCO2,-1.0%
# Next structures follow.
SMILES,Mtb H37Rv
Cc1cc(C)cc(-n2c(-c3ccccc3)cn3c4c(=O)[nH]c(=O)n(C)c4nc23)c1,12.9%
O=C(Nc1nnc(-c2ccccc2Cl)s1)c1cc(Cl)ccc1Cl,-7.5%
COC(=O)c1cc2c(nc1C)-c1ccccc1OC2O (configuration not stated),22.3%
COC(=O)C1CCN(C(c2cccc(Cl)c2)c2sc3nc(C)nn3c2O)CC1 (configuration not stated),0.8%
CSc1nc2ccc3nc(NC(=O)c4ccc(C#N)cc4)sc3c2s1,-3.7%
O=C(CCCc1nnc2c(=O)n(-c3ccc(Cl)cc3)ccn12)NCc1ccccn1,-7.1%
O=C(Nc1nnc(-c2ccc(Br)cc2)o1)c1ccc(Cl)s1,1.87µg/mL*
Cc1cc2c(cc1C)NC(CC(=O)Nc1sc3c(c1C#N)CCCC3)C(=O)N2 (configuration not stated),-4.6%
O=C(CSc1nc2c(c(=O)n1-c1ccc(Cl)cc1)SCC2)Nc1nccs1,11.8%
Cn1ncc2c(Nc3ccc(Cl)c(Cl)c3)ncnc21,5.6%
Nc1nc(SCC(=O)Nc2ccc3c(c2)OCO3)[nH]c(=O)c1NC(=O)c1ccco1,-4.4%
CCCc1cc(=O)[nH]c2nnc(SCC(=O)NC(C)(C)C)n12,-8.8%
Cc1ccc(-c2nnc(NC(=O)c3ccc(C(C)(C)C)cc3)s2)cc1,4.0%
COc1ccc(-c2nnc(Nc3nc4ccc(SC)cc4s3)o2)cc1,41.6%
Nc1nc(SCC(=O)Nc2ccccc2F)[nH]c(=O)c1NC(=O)c1ccc(Cl)cc1,6.5%
O=C(COc1ccccc1)Nc1nc2c(cc3c4c(cccc42)CC3)s1,-2.0%
O=C(CN1C(=O)/C(=C/c2ccco2)SC1=S)Nc1ccc(C(=O)O)cc1,-11.8%
O=C(CC(C(=O)O)N1CCNCC1)Nc1ccc(Br)cc1 (configuration not stated),-0.6%
O=C(NCC1COC2(CCCCC2)O1)C(=O)Nc1ccccc1[N+](=O)[O-] (configuration not stated),0.9%
O=C(OCc1ccccc1)c1cc2cc([N+](=O)[O-])ccc2oc1=O,14.9%
O=C(CCN1C(=O)c2ccccc2S1(=O)=O)Nc1ccc(Br)cc1,17.5µg/mL*
O=C(Nc1nnc(-c2ccc(F)cc2)o1)c1ccc(S(=O)(=O)N2CCc3ccccc3C2)cc1,96.8%
Cc1cc(C)cc(Oc2coc3cc(OCC#N)ccc3c2=O)c1,6.9%
COc1ccc2[nH]cc(CCNC(=O)CN3C(=O)S/C(=C\c4ccc(F)cc4)C3=O)c2c1,5.3%
O=C(N/N=C/c1c(F)cccc1Cl)c1n[nH]c2c1CCC2,28.7%

# 7 structures out of the list, sorted by molar mass, lowest first.
SMILES,Mtb H37Rv
O=C(N/N=C/c1c(F)cccc1Cl)c1n[nH]c2c1CCC2,28.7%
O=C(OCc1ccccc1)c1cc2cc([N+](=O)[O-])ccc2oc1=O,14.9%
O=C(NCC1COC2(CCCCC2)O1)C(=O)Nc1ccccc1[N+](=O)[O-] (configuration not stated),0.9%
COc1ccc(-c2nnc(Nc3nc4ccc(SC)cc4s3)o2)cc1,41.6%
O=C(Nc1nnc(-c2ccccc2Cl)s1)c1cc(Cl)ccc1Cl,-7.5%
Nc1nc(SCC(=O)Nc2ccc3c(c2)OCO3)[nH]c(=O)c1NC(=O)c1ccco1,-4.4%
O=C(CSc1nc2c(c(=O)n1-c1ccc(Cl)cc1)SCC2)Nc1nccs1,11.8%

# Next section.
SMILES,Mtb H37Rv
Cc1ccc(SCc2nc3ccccc3c(=O)[nH]2)cc1,6.4%
O=C(Nc1ccccc1F)C(=O)c1c[nH]c2ccccc12,12.5%
O=C(O)CCCN1C(=O)C2C3CC(C2C1=O)C1C(c2cccs2)c2sc(=O)[nH]c2SC31 (configuration not stated),-6.4%
COc1ccc(C(=O)Nc2c(N)nc(SCC(=O)Nc3cc(C)cc(C)c3)[nH]c2=O)cc1OC,-8.8%
COc1ccc(NC(=O)CSc2nnc(CNC(=O)c3ccco3)n2-c2ccc(F)cc2)cc1,0.8%
CC(C)(C)n1nc2c(c1NC(=O)COc1ccccc1)CS(=O)(=O)C2,-17.2%
O=C(O)CCn1c(-c2ccccc2)cc2c1CCCC2=O,-16.2%
COc1ccc(OC)c(NC(=O)C2=C(C)NC(=O)NC2c2ccc(Br)cc2)c1 (configuration not stated),8.5%
COc1cc2c3nnc(-c4ccc(C)c(C)c4)c-3cn(Cc3ccc(F)cc3)c2cc1OC,6.0%
C=CCN1CC(c2nc3ccccc3n2CCCOc2ccc(C)c(C)c2)CC1=O (configuration not stated),15.4%
NC(=O)c1c(NC(=O)c2cccc(C(F)(F)F)c2)sc2c1CCCCC2,-1.5%
COC(=O)C1CCN(C(c2ccc(Br)cc2)c2sc3nc(C)nn3c2O)CC1 (configuration not stated),-11.9%
O=C(O)CN1C(=O)SC(Nc2ccccc2)C1=O (configuration not stated),3.0%
CCOc1cc(C(=O)NCc2nnc(SCC(=O)Nc3nnc(C)s3)n2-c2cccc(C)c2C)cc(OCC)c1OCC,-6.5%
O=[N+]([O-])c1cccc(Nc2nc(-c3ccccc3)nc3ccccc23)c1,0.3%
CCc1nc(SCC(=O)Nc2ccc3c(c2)OCCO3)c2c(=O)n(C)c(=O)n(C)c2n1,-6.8%
CC1(C)CC(=O)c2sc(NC(=O)c3sc4ccccc4c3Cl)nc2C1,7.4%
Cc1ccc(NC(=O)CSc2nc3c(c(=O)n2-c2ccc(Cl)cc2)SCC3)cc1,7.3%
CC1CCc2c(sc3ncnc(N4CCN(C)CC4)c23)C1 (configuration not stated),4.1%
O=C(CCCN1C(=O)/C(=C/c2ccc3c(c2)OCO3)SC1=S)Nc1cccc(O)c1,11.7%
CC(=O)NCCc1nc2ccccc2n1CCCOc1cccc(C)c1,-3.0%
Cn1c(=O)c2c(SCC(=O)N3CCCCC3)nc(-c3cccs3)nc2n(C)c1=O,5.2%
COC(=O)c1ccc(C2NC(=S)NC(C)=C2C(=O)Nc2ccccc2)cc1 (configuration not stated),1.8%
COc1ccccc1NC(=O)c1cnc(SCc2ccccn2)n(C)c1=O,-8.8%
O=C(CCN1C(=O)/C(=C\c2ccco2)SC1=S)Nc1cccc2ccccc12,-12.3%
# Continued:
SMILES,Mtb H37Rv
Cc1cc(NC(=O)Cn2cnc3c(nnn3-c3cccc(F)c3)c2=O)no1,8.9%
COc1ccc(C(=O)Nc2cc(C)c3c(=O)oc4ccccc4c3n2)cc1,-3.4%
CCCc1cc(=O)[nH]c2nnc(SCC(=O)OC)n12,9.0%
O=C(Nc1c(C(=O)Nc2ccc(F)cc2)oc2ccccc12)c1ccccc1Cl,11.1%
O=C(Nc1c(C(=O)Nc2ccc3c(c2)OCO3)oc2ccccc12)c1cccc(C(F)(F)F)c1,-2.9%
NC(=O)c1nc(-c2cccs2)nc2c1[nH]c(=O)n2-c1ccc(F)cc1,66.9%
CCOC(=O)c1nn(-c2ccccc2)c(=O)c2c(NC(=O)c3ccc(OCC)cc3)scc12,-8.7%
O=C(COc1cccc(Cl)c1)Nc1ccc2c(c1)OCCO2,16.2%
Cc1ccc(CC(=O)Nc2cccc(C)n2)cc1,18.0%
CCOC(=O)C1CCN(C(c2cccc(OC)c2)c2sc3nc(C)nn3c2O)CC1 (configuration not stated),-1.9%
COc1ccc2nc(NC(=O)c3ccc(Oc4ccccc4)cc3)sc2c1,21.2%
NC(=O)c1oc2ccccc2c1NC(=O)c1coc2ccccc2c1=O,-7.4%
COc1ccc(/C=C/C(=O)Nc2nnc(-c3cccc(C)c3)s2)cc1OC,-7.9%
Cc1cccc(Cn2c(SCC(=O)c3ccccc3)nc3c2c(=O)n(C)c(=O)n3C)c1,-6.0%
COc1cc2ccccc2cc1C(=O)Nc1nc(-c2ccc(C)c(C)c2)cs1,0.8%
O=C(Nc1cc2c3c(c1)CCC(=O)N3CCC2)c1ccc(-c2ccccc2)cc1,4.3%

# Rewritten as labelled records: 4 of the compounds above.
> COCCCn1c(SCC(=O)Nc2ccccc2C(=O)OC)nc2c(sc3ccccc32)c1=O
  Mtb H37Rv: -2.9%

> O=C(NCCC1=CCCCC1)c1cnc2n(c1=O)CCS2
  Mtb H37Rv: 5.4%

> O=C1c2cccc3cccc(c23)C(=O)N1CC(=O)N1CCCc2ccccc21
  Mtb H37Rv: -20.3%

> CC(=O)c1c(C)oc2ccc(N(C(=O)c3ccccc3)S(=O)(=O)c3cc(C)ccc3C)cc12
  Mtb H37Rv: -1.4%

# Screening results: PubChem, Southern Research Institute
